# NPYLR7 agonist: mosquito NPYLR7 agonism | 270,000 compounds, 0.15% hits | activation, % at 10 µM | HEK293T NPYLR7/Galpha15, GCaMP6s calcium fluorescence; in the data active = activation above about 40%;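 also: 0% = vehicle and 100% = reference agonist at the receptor; some compounds past the cut are filed as inactive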
# NPYLR7 agonist max-min: further read-out of NPYLR7 agonist, marked with its call; activation, %; measured here: Max-Min RFU normalised activation; some inactives read as strong as hits;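 span of the calcium signal over five minutes; 0% = vehicle and 100% = native peptide agonist; compound fluorescence can raise it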
# The depositor's hits bear a star; & = joins results of further samples. These rows are one share of the data; count on the stated rates, not on these rows.
# Start of the data: the first 5 entries, ahead of the listing:
canonical_smiles | NPYLR7 agonist | NPYLR7 agonist max-min
O=c1[nH]c(CN(CCN2CCOCC2)CC(O)Cc2ccccc2)nc2scc(-c3ccccc3)c12 (stereo unspecified) | -9.9 | -8.1
Cc1ccccc1-c1noc(-c2nnn(-c3ccccc3Cl)c2C)n1 | 1.3 | -6.3
Cc1ccc(-c2nc(C(=O)O)cs2)n1C | 0.4 | -4.9
Cc1cccc2c1NC1(CCN(C(=O)C(C)(C)CCl)CC1)NC2=O | 12.2 | 0.6
O=C1C[C@H]2CC[C@@H](CN1)N2C(=O)c1ccno1 | -4.2 | -12.2

# This part in full, from the start:
canonical_smiles | NPYLR7 agonist | NPYLR7 agonist max-min
O=c1[nH]c(CN(CCN2CCOCC2)CC(O)Cc2ccccc2)nc2scc(-c3ccccc3)c12 (stereo unspecified) | -9.9 | -8.1
Cc1ccccc1-c1noc(-c2nnn(-c3ccccc3Cl)c2C)n1 | 1.3 | -6.3
Cc1ccc(-c2nc(C(=O)O)cs2)n1C | 0.4 | -4.9
Cc1cccc2c1NC1(CCN(C(=O)C(C)(C)CCl)CC1)NC2=O | 12.2 | 0.6
O=C1C[C@H]2CC[C@@H](CN1)N2C(=O)c1ccno1 | -4.2 | -12.2
CC1Oc2ccccc2OC1C(=O)N1CC2CC3CC(C2)CC1C3 (stereo unspecified) | -0.2 | 23.0
COc1cc2nccc(Oc3ccc(NC(=O)Nc4ccc(F)cc4F)c(F)c3)c2cc1OC | 1.6 | -7.5
CC(NC(=O)Cc1nc2ccccc2[nH]1)c1ccc(O)c(F)c1 (stereo unspecified) | -2.5 | 18.2
O=C([C@@H]1CC(F)(F)CN1)N1CCc2c(nc(-c3ccccc3)[nH]c2=O)C1 | -1.2 | -6.3
CC1CN(C(=O)Cn2cnc3c(nnn3-c3ccc(Br)cc3)c2=O)CC(C)O1 (stereo unspecified) | 0.8 | 1.7
O=C(OCc1ccc(F)cc1)C1CC2CCCC(C1)C21SCCS1 (stereo unspecified) | 1.8 | 2.2
Cc1onc(-c2ccccc2)c1C(=O)NC12CC3CC(CC(C3)C1)C2 | 3.9 | 3.0
COc1ccc(S(=O)(=O)N(C(=O)C2CCCCC2)c2ccc3oc(C)c(C(C)=O)c3c2)cc1 | -4.6 | -8.9
O=C1NC2(CCN(C(=O)CCl)CC2)Nc2cccc(F)c21 | 16.5 | 25.7
COc1ccc(OC)c(S(=O)(=O)NC(c2ccc(SC)cc2)c2cccc(Cl)c2Cl)c1 (stereo unspecified) | -4.0 | -8.3
Cc1ccc(NC(=O)C(C)Sc2nnc(N3CCC(C)CC3)n2C2CC2)cc1 (stereo unspecified) | -7.8 | -10.6
CCn1nccc1C(=O)Nc1nccs1 | 5.0 | 7.1
CC1CN(C2CCN(CC(=O)Nc3ccc(F)cc3)CC2)CCO1 (stereo unspecified) | 5.4 | 2.2
O=C(Nc1nc2ncccc2cc1-c1ccccc1)C1CCCC1 | 1.4 | 6.3
O=C(c1cc(=O)c2ccccc2[nH]1)N(Cc1ccccn1)CC1CCCO1 (stereo unspecified) | 8.7 | 9.9
CC(C)(C)OC(=O)N1CCCCC1CNC(=O)CNC(=O)c1ccoc1 (stereo unspecified) | 10.8 | 8.8
COc1cn(CC(=O)NCC2CCCO2)c(CSc2nc(C)cc(C)n2)cc1=O (stereo unspecified) | -4.0 | -9.8
Cc1ccccc1Cn1cc(C(=O)N(C)Cc2ccc(Oc3ccccc3)cc2)nn1 | 5.9 | 4.1
Cc1cc2nc(-c3ccccc3)c(N3CCCN(C(=O)N4CCOCC4)CC3)nc2cc1C | 15.3 | 13.5
CCOC(=O)C1(CCOc2ccccc2)CCCN(C(=O)CN2CCCCC2=O)C1 (stereo unspecified) | 11.2 | 3.1
CCCC(=O)N1N=C(c2ccc(C)cc2)CC1c1ccc2nccnc2c1 (stereo unspecified) | 1.3 | 10.1
Cc1cccc(CC(=O)Nc2ccc(-c3ccc(=O)n(C)n3)cc2)c1 | -0.9 | -2.4
CCn1c(C2CCCN(Cc3cccn3-c3ccccn3)C2)n[nH]c1=O (stereo unspecified) | 8.3 | 8.6
Cc1ccc(OCCn2cncn2)nc1 | -0.2 | 0.4
Cc1ccc(NC(=O)COC(=O)c2ccccc2OCC(=O)N(C)C)cc1 | -2.1 | -3.3
CC12CC3CC(C)(C1)CC(NC(=O)c1ccc(N4CCCC4)c([N+](=O)[O-])c1)(C3)C2 | -4.0 | -8.8
Cc1cc(C(=O)N2CCOc3ccc(CN4CCC(OCc5ccccc5)CC4)cc3C2)nc(C)n1 | 12.6 | 2.6
COc1cc(/C=N\Nc2nnc(C(C)(C)C)c(=O)[nH]2)cc(OC)c1OC | 2.9 | -1.8
Cn1c(=O)c(CN(Cc2ccsc2)Cc2ccco2)cc2ccccc21 | -0.2 | 0.0
CC(c1cccc(O)c1)N(C)c1nc(C(F)F)nc2ccccc12 (stereo unspecified) | 4.9&1.0 | 3.5&-4.1
CC(C#N)SC12CC3CC(CC(C3)C1)C2 (stereo unspecified) | 19.5 | 13.7
C=C(Br)CNC(=O)c1cnn(-c2ccccn2)c1CC | -0.7 | -1.5
CCOC(=O)C1=C(C)NC(SC)=NC1c1ccc(Br)cc1 (stereo unspecified) | 0.3 | -4.7
FC(F)c1cc(C(F)F)n2nccc2n1 | -1.8 | -8.0
Cc1cc(C)c(CNC(C)c2cnc(-c3ccncc3)nc2C)cc1C (stereo unspecified) | 5.8 | 2.1
COc1ccc(CCNCC(O)Cn2c3ccccc3c3ccccc32)cc1OC (stereo unspecified) | 14.1 | 14.7
Cc1nn(C)cc1CNC(=O)CCc1ccccc1 | 0.5 | -0.7
CC1CN(c2ccc(Nc3nc4ccccc4o3)cn2)CC(C)O1 (stereo unspecified) | 8.2 | 4.4
CC(=O)Nc1nnc(-c2cc(C)n(C)n2)o1 | -8.2 | -14.4
Oc1[nH]c2c(Br)cc(Br)cc2c1N=Nc1ccc(C(F)(F)F)cn1 | -0.7 | -0.6
COC(=O)c1c(C)cccc1S(=O)(=O)N1CCCC(c2nncn2C)C1 (stereo unspecified) | -3.0 | -5.0
COc1ccc(/C=C2\C=C(c3ccccc3)N(c3ccccc3Cl)C2=O)cc1Br | -1.8 | 3.0
N#CCc1cc(-c2ccc(Cl)cc2)on1 | 3.2 | 1.2
CC(=O)N1CCc2c(nc(N(C)C)nc2N(C)Cc2ncc[nH]2)C1 | 8.2 | 0.6
Nc1nnc(-c2ccc(Br)cc2)s1 | -0.4 | -0.7

# Next structures follow:
canonical_smiles | NPYLR7 agonist | NPYLR7 agonist max-min
O=C(CCC1CCCC1)N1CCC(n2cnc3cc(C(F)(F)F)ccc32)CC1 | 3.4 | -1.6
Cc1ccc(C(=O)N(CC(=O)Nc2nc(CC(=O)N3CCC4(CC3)OCCO4)cs2)C(C)C)cc1 | -5.3 | 1.6
Cc1ccccc1C1=NOC(C(=O)N2CCCC2)C1 (stereo unspecified) | -3.4 | -3.2
COc1ccc(S(=O)(=O)N2CCN(c3ncccn3)CC2)cc1 | 6.0 | 3.3
CCCCN(Cc1cccn1Cc1ccc(Br)cc1)C(=O)CN(CCC)C(=O)NCc1ccccc1 | -4.3 | -2.1
Cc1c(C(=O)NCc2ccc(F)cc2)sc2nc3n(c(=O)c12)CCC3 | 0.4 | -2.6
C=CCn1c2[n+](c3ccccc3c1=O)CCCCC2 | 9.4 | 8.9
CC(C)N1CCN(c2nc3nonc3nc2NCc2ccccc2)CC1 | 4.1 | 1.4
COc1ccccc1N1CCN(c2ccc(NC(=O)Nc3ccccc3F)cc2C(=O)NCCc2ccccc2)CC1 | 15.7 | 10.3
CN(C)c1ccc(/C=N\NC(=O)CSc2nc3ccccc3s2)cc1 | -4.1 | -9.7
CCCCCCCn1c(CN2CCN(C(=O)c3ccco3)CC2)nc2c1c(=O)n(C)c(=O)n2C | 0.6 | 16.4
CN(CC1CCCN(CCc2ccc(Cl)cc2)C1)C(=O)C1CCCCC1 (stereo unspecified) | 1.5&-0.3 | -1.3&-1.3
CC(=O)Nc1ccc(NC(=O)c2c(C)cc(=O)oc2C)cc1 | 5.2 | 1.2
CN1CC2(CCN(C(=O)CNS(=O)(=O)c3cccs3)C2)OC1=O (stereo unspecified) | -0.7 | -4.2
CC1C(=O)N(c2ccccc2-c2ccccc2)CCN1S(=O)(=O)c1ccc(F)cc1 (stereo unspecified) | -4.9 | 3.6
COc1cc(C)ccc1Oc1cnn(C)c(=O)c1Nc1cccc(C(=O)NC2CC2)c1 | 5.6 | 4.6
COc1ccccc1C(NC(=O)C1CCN(CCOc2ccc(Cl)cc2Cl)CC1)c1ccccn1 (stereo unspecified) | 8.5 | 5.7
Cc1cc(CSc2ncnc3sccc23)no1 | 2.5 | 3.4
COCCN(Cc1nc(C(=O)OC)cs1)C(=O)Nc1ccc(OC)cc1 | -1.8 | 6.6
CCOC(=O)c1cccc(NC(=O)O[C@@H]2CC[C@]3(C)C(CC[C@@H](O)[C@H]3CC(=O)N3CC[C@@H](O)C3)[C@]2(C)CO)c1 (stereo partly specified) | -11.2 | -15.9
CC1=C(C(=O)N2CCc3c(c(C(=O)NCc4nccs4)nn3Cc3ccccc3)C2)OCCO1 | 16.6 | 3.3
Cn1ccnc1Sc1ncc(C(=O)Nc2ccncc2)cc1Cl | 8.0 | 4.1
CCN(c1ccc(NC(=O)C2CCN(S(C)(=O)=O)CC2)cc1)C(C)C | 5.1 | 3.1
Cc1nonc1CN(C)C(=O)c1csc2nc(-c3ccc(C(F)(F)F)cc3)cn12 | 0.0 | -4.3
CCOc1ccc(-c2ccc(=O)n(CCNS(=O)(=O)Cc3ccccc3)n2)cc1 | 12.9 | 9.0

# Next part, starting with the last four of the part before.
molecule	NPYLR7 agonist	NPYLR7 agonist max-min
Cn1ccnc1Sc1ncc(C(=O)Nc2ccncc2)cc1Cl	8.0	4.1
CCN(c1ccc(NC(=O)C2CCN(S(C)(=O)=O)CC2)cc1)C(C)C	5.1	3.1
Cc1nonc1CN(C)C(=O)c1csc2nc(-c3ccc(C(F)(F)F)cc3)cn12	0.0	-4.3
CCOc1ccc(-c2ccc(=O)n(CCNS(=O)(=O)Cc3ccccc3)n2)cc1	12.9	9.0
COCC(=O)NC(Cc1ccccc1)C(=O)Nc1nnc(-c2cccc(Br)c2)s1 (stereo unspecified)	20.2	25.9
Cc1cn2c3c(=O)n(CCC(C)C)c(=O)n(C)c3nc2n1C1CCCCC1	-1.3	2.9
NC(=O)c1nc(CN2CCOC(C(F)(F)F)C2)no1 (stereo unspecified)	2.9	1.3
Cc1ccc(-n2nnc(C(=O)OCc3cccc(F)c3)c2C)cc1F	-1.1	-4.2
O=C1N=c2ccccc2=C1N=Nc1c(O)[nH]c2c(Cl)cc(Cl)cc12	0.8	-4.6
O=C(NC1CCCCC1)OCC(F)(F)F	20.6	17.1
Cc1ccc(F)c(S(=O)(=O)NC(=O)C2(C)CCN2C(=O)CC(c2ccccc2)c2ccccc2)c1 (stereo unspecified)	5.1	2.7
O=C(CCc1csc(NC(=O)c2ccc[nH]c2=O)n1)NC1CCCCCC1	-9.8	-16.0
C=CCNC(=O)Nc1cn(CC)c2ccccc12	-2.6	-5.9
CCC(c1nc2ccccc2c(=O)n1CC)N(CCc1ccc(Cl)cc1Cl)C(=O)c1ccc(F)cc1 (stereo unspecified)	17.9	21.1
c1cncc(CN(Cc2ccnc3ccccc23)CC2CCN(C3CCCC3)CC2)c1	3.7	-2.4
O=C(CN1C(=O)c2ccc([N+](=O)[O-])cc2C1=O)N1CCOCC1	-9.5	-12.9
COc1ccccc1NC(=O)N1CCN(c2nc(-c3ccc(C)cc3)nc(C)c2C)CC1	20.8	16.7
CCCOc1cccn2c(N(C)C(=O)C(CC)CC)c(C)nc12	5.7	-7.2
CCOC(=O)NC(C(=O)N1CCc2ccccc2C1)C(C)C (stereo unspecified)	2.2	1.0
CC(C)c1ccc(-n2cc(CN3CCC(CN)C3)cn2)cc1 (stereo unspecified)	0.4	1.1
COc1ccc2c(c1)CCc1c-2noc1-c1ccc(NC(=O)c2ccc(OC)c(C(F)(F)F)c2)cc1	5.1	7.8
CCCCN(CC(=O)N1CCc2sccc2C1c1ccc(F)cc1)C(=O)c1ccco1 (stereo unspecified)	-0.7	6.6
Cc1cnccc1CN(C)C(=O)Cn1c(C2CC2)nc2ccccc21	4.2	-3.3
Cc1cc(C2CCCN(C(=O)C(C)c3c(C)nn(C)c3C)C2)n[nH]1 (stereo unspecified)	6.2	4.2
CCOCCn1c(N2CCN(Cc3ccc(Cl)c(Cl)c3)CC2)nc2c1c(=O)[nH]c(=O)n2C	6.3	5.0
CCC1CN(C(=O)Nc2ccc(Br)cc2Cl)CCO1 (stereo unspecified)	4.3	2.1
Cc1nn(C2CCS(=O)(=O)C2)c2nc(-c3ccccc3)cc(C(=O)N3CCC(C(N)=O)CC3)c12 (stereo unspecified)	1.8	7.0
Cc1ccsc1CCn1cnc(-c2ccccc2)c1-c1nccn1C	3.2	3.4
Cc1ccc(S(=O)(=O)N=C(Nc2ccc(Cl)cc2)Nc2nc(C)cc(C)n2)cc1	-5.5	-10.8
COc1ccccc1-n1ccnc(SCC(=O)c2ccccc2)c1=O	5.1	12.3
N#Cc1ccccc1Cn1c(=O)n(Cc2ccccc2)c(=O)c2c3c(sc21)CCC3	-3.3	-4.7
COC(=O)C(NS(=O)(=O)c1ccc(C)c(C(N)=O)c1)C(C)(C)C (stereo unspecified)	-0.2	-3.1
O=C(CCc1ccccc1)N1CCN(C(C(=O)N2CCOCC2)C2CCCC2)CC1 (stereo unspecified)	-3.9	-0.9
COc1ccc(C2SCC(=O)N2c2c(C)n(C)n(-c3ccccc3)c2=O)c(OC)c1 (stereo unspecified)	-3.9	-9.2
NS(=O)(=O)c1ccc(S(=O)(=O)NCCc2c[nH]c3ccccc23)cc1	4.5	0.7
CCOC(=O)C1=C(O)/C(=C\c2ccc(OC)c(OC)c2OC)SC1=Nc1ccc(OCC)cc1	-4.7	3.3
CC1CN(c2cc(Oc3ccccc3Cl)ncn2)CCN1C(=O)C1CCCCC1 (stereo unspecified)	3.7	7.5
COc1ccc(C(C2Sc3nc(C)nn3C2=O)N2CC(C)CC(C)C2)cc1OC (stereo unspecified)	-6.2	-8.4
Cc1cc(C(=O)N2CCC(C)CC2)ccc1NCC(=O)NCC(F)(F)F	-0.9	-5.8

# Screening results from PubChem BioAssay.
